Source: PubChem BioAssay
DUX4 txn inh = inhibitors of DUX4-driven ZSCAN4 reporter expression, primary screen, 293T cells, Gaussia and Italica luciferase; 293T-iDUX4 ZSCAN4-Gaussia luciferase reporter, 24 h; stronger effect = lower value; activity change, negative = inhibition, % (no concentration beside the values); actives 0.8% (n = 37,000); AID 1224904, 2016;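 active = -10% or lower and over 25 points stronger than a control reporter; inconclusive = -10% or lower with a smaller gap; inactive = above -10%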;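 also: 0% = median of neutral control wells and -100% = median of positive control wells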
DUX4 txn inh difference = recorded beside DUX4 txn inh, whose call it bears; Gaussia minus Italica difference, %; measured here: selective DUX4 reporter inhibition;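 worked out from the two reporters; negative = selective loss of the DUX4 reporter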
DUX4 txn inh control = also measured in DUX4 txn inh; calls as there; activity change, negative = inhibition, %; measured here: Italica tet-on control reporter;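 0 = neutral control and -100 = positive control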
Starred values were filed as active, the others as inactive; ? = inconclusive; nt = not tested or not shown. A portion of the library. The share of hits here may be higher or lower than overall.

item	DUX4 txn inh	DUX4 txn inh difference	DUX4 txn inh control	SMILES
1	-1	4	-5.2	O=C(C[C@H]1C[C@@H]2c3cc(NC(=O)Nc4ccc(C(F)(F)F)cc4)ccc3O[C@@H]2[C@H](CO)O1)NC1CCCCC1
2	6	1	5.3	O=C(C[C@H]1C[C@H]2c3cc(NC(=O)NC4CCCCC4)ccc3O[C@H]2[C@H](CO)O1)NCC(F)(F)F
3	-4	-2	-2.1	COc1ccccc1NC(=O)Nc1ccc2c(c1)C(=O)N(C)C[C@H](OC)[C@H](C)CN[C@H](C)CO2
4	11	7	3.1	O=C(Cc1ccccn1)N1CC(=O)N2[C@H](CO)[C@@H](c3ccc(-c4ccc(F)cc4)cc3)[C@@H]2C1
5	-3	-5	1.7	CN1C(=O)c2cc(NC(=O)c3ccc(C(F)(F)F)cc3)ccc2OC[C@@H]2O[C@H](CC(=O)NCc3ccc4c(c3)OCO4)CC[C@@H]21
6	3	0	2.4	CO[C@H]1CN(C)C(=O)c2ccc(NS(=O)(=O)c3cccc(F)c3)cc2OC[C@H](C)NC[C@@H]1C
7	-2	-3	0.9	C[C@@H](NC(=O)C[C@@H]1C=C[C@@H](NS(=O)(=O)c2cccc(F)c2)[C@@H](CO)O1)c1ccccc1
8	1	0	0.9	Cc1ccc(S(=O)(=O)Nc2ccc3c(c2)C(=O)N([C@H](C)CO)C[C@H](C)[C@H](CN(C)C(=O)Nc2c(C)noc2C)O3)cc1

The listing continues:
item	DUX4 txn inh	DUX4 txn inh difference	DUX4 txn inh control	SMILES
9	3	0	2.8	CO[C@@H]1CN(C)C(=O)c2cc(NS(=O)(=O)c3cn(C)cn3)ccc2OC[C@@H](C)N(CCC(F)(F)F)C[C@H]1C
10	-3	-5	2.0	COc1ccc(S(=O)(=O)N(C)C[C@H]2OCc3ccccc3-c3ccccc3C(=O)N([C@@H](C)CO)C[C@H]2C)cc1
11	1	-3	3.9	CC(C)C#Cc1ccc2c(c1)O[C@@H](CN(C)C(=O)c1ccncc1)[C@@H](C)CN([C@H](C)CO)S2(=O)=O
12	?	nt	nt	C[C@H](NC(=O)C[C@@H]1CC[C@@H]2[C@H](COC[C@@H](O)CN2Cc2ccc(C(F)(F)F)cc2)O1)c1ccccc1
13	0	1	-1.0	CCCC(=O)Nc1ccc2c(c1)C(=O)N(C)[C@H]1CC[C@H](CC(=O)NCC3CCCCC3)O[C@@H]1CO2
14	-2	-1	-1.4	CCCNC(=O)[C@@H]1[C@@H](CO)[C@@H]2Cn3c(cccc3=O)[C@H]1N2Cc1ccccc1
15	0	-3	3.1	CC(=O)N1[C@H](C(=O)NCc2ccccc2F)[C@@H](CO)[C@@H]2Cn3c(ccc(-c4ccccc4)c3=O)[C@@H]21
16	7	1	5.9	COc1ccc(-c2cnc3c(c2)C(=O)N([C@H](C)CO)C[C@H](C)[C@H](CN(C)C(=O)C2CCC2)O3)cc1

(further entries)
item	DUX4 txn inh	DUX4 txn inh difference	DUX4 txn inh control	SMILES
17	-1	-1	0.4	O=C(O)[C@H]1[C@H](CO)[C@H]2Cn3c(ccc(-c4ccc(F)cc4)c3=O)[C@H]2N1CCc1ccccc1
18	19	21	-1.9	COc1ccc2c3c(n(C)c2c1)[C@@H](CO)N(S(C)(=O)=O)CC31CN(C(=O)C2CC2)C1
19	4	11	-7.3	COc1ccc2c3c(n(C)c2c1)[C@H](CO)N(S(C)(=O)=O)CC31CCN(C(=O)Nc2cccc(F)c2)CC1
20	2	1	1.2	C[C@H]1CCCCO[C@H](CN(C)C(=O)Cc2ccccc2)[C@@H](C)CN([C@@H](C)CO)C(=O)c2cc(N(C)C)ccc2O1
21	-3	-2	-0.9	CN(C)CC(=O)N1[C@H](CO)[C@H](c2ccc(C#CC3CCCCC3)cc2)[C@@H]1C#N
22	?	nt	nt	O=C(Cc1cccnc1)N1CC(=O)N2[C@H](C1)[C@@H](c1ccc(/C=C/c3ccccc3)cc1)[C@@H]2CO
23	-5	-3	-1.8	O=C1NCCOCc2cnnn2CC[C@@H]1Cc1ccc(F)cc1
24	4	1	3.0	O=C(C[C@@H]1C[C@H]2c3cc(NS(=O)(=O)c4ccccc4)ccc3O[C@H]2[C@H](CO)O1)NCC(F)(F)F

Reformatted: entries from further up.
cpd | Structure | DUX4 txn inh | DUX4 txn inh difference | DUX4 txn inh control
17 | O=C(O)[C@H]1[C@H](CO)[C@H]2Cn3c(ccc(-c4ccc(F)cc4)c3=O)[C@H]2N1CCc1ccccc1 | -1 | -1 | 0.4
18 | COc1ccc2c3c(n(C)c2c1)[C@@H](CO)N(S(C)(=O)=O)CC31CN(C(=O)C2CC2)C1 | 19 | 21 | -1.9
19 | COc1ccc2c3c(n(C)c2c1)[C@H](CO)N(S(C)(=O)=O)CC31CCN(C(=O)Nc2cccc(F)c2)CC1 | 4 | 11 | -7.3

Other entries.
item	DUX4 txn inh	DUX4 txn inh difference	DUX4 txn inh control	SMILES
25	1	22	-21	COc1ccc2c3c(n(C)c2c1)[C@@H](CO)NCC31CCN(Cc2ccc(-c3ccccn3)cc2)CC1
26	0	-4	3.8	COc1ccc(CN2[C@@H](CO)[C@@H]3c4ccccc4N(C(=O)CC(F)(F)F)C[C@@H]32)cc1
27	4	3	1.2	CN1[C@@H]2Cn3c(ccc(-c4cccc(F)c4)c3=O)[C@H]1[C@@H](C(=O)NCc1ccccc1)[C@@H]2CO
28	3	10	-6.6	CCCNC(=O)[C@H]1[C@H](CO)[C@H]2Cn3c(cccc3=O)[C@H]2N1C(=O)C1CC1
29	-1	-3	1.7	O=C(Nc1cccc(Cl)c1)N1C[C@@H]2[C@H](c3ccccc31)[C@@H](CO)N2C(=O)c1cccnc1
30	0	2	-2.7	COc1cccc(C(=O)Nc2ccc3c(c2)C(=O)N(C)[C@H]2CC[C@H](CC(=O)NCC(F)(F)F)O[C@H]2CO3)c1
31	-6	-12	6.8	O=C(C[C@@H]1CC[C@@H]2[C@H](COC[C@@H](O)CN2S(=O)(=O)c2ccccc2)O1)NCC1CCCCC1
32	-2	0	-2.4	C[C@@H]1CN([C@H](C)CO)C(=O)Cc2cc(NC(=O)C3CCCCC3)ccc2O[C@H]1CN(C)Cc1ccc(Cl)c(Cl)c1

(more compounds)
item	DUX4 txn inh	DUX4 txn inh difference	DUX4 txn inh control	SMILES
33	10	2	7.4	CCCNC(=O)N1CC2(CCN(C)CC2)c2c([nH]c3cc(OC)ccc23)[C@H]1CO
34	0	1	-1.1	C/C=C/c1ccc([C@H]2[C@@H](CO)N(C(=O)COC)[C@H]2CNC(=O)C2CCC2)cc1
35	5	4	1.3	Cc1ccc(S(=O)(=O)N[C@H]2C=C[C@H](CC(=O)NCCCN(C)C)O[C@H]2CO)cc1
36	5	3	2.4	CNC[C@H]1OCc2ccccc2-c2c(n(C)c3ccccc23)C(=O)N([C@H](C)CO)C[C@H]1C
37	-3	-5	2.3	C[C@H](CO)N1C[C@H](C)[C@H](CN(C)Cc2ccncc2)OCCCC[C@H](C)Oc2ccc(NC(=O)Cc3ccccc3)cc2C1=O
38	5	-2	7.2	CN(C)CC(=O)N[C@@H]1C=C[C@@H](CC(=O)NCc2ccc(Cl)cc2)O[C@@H]1CO
39	-5	2	-7.3	COc1ccccc1NC(=O)N1CC[C@@H]2[C@H]1c1cc(-c3ccc(F)cc3)ccc1N(C)[C@@H]2CO
40	-1	-1	0.6	CN(C)C(=O)c1ccc(-c2ccc([C@H]3[C@@H](C#N)N(C(=O)C4CC4)[C@@H]3CO)cc2)cc1

Next part.
item	DUX4 txn inh	DUX4 txn inh difference	DUX4 txn inh control	SMILES
41	-7	-3	-4.2	CC(C)C#Cc1ccc([C@@H]2[C@@H](CO)N3C(=O)CN(C(=O)c4ccc5c(c4)OCO5)C[C@@H]23)cc1
42	7	4	3.0	CC(=O)N1CC(=O)N2[C@H](CO)[C@@H](c3ccc(-c4ccc(C(=O)N(C)C)cc4)cc3)[C@@H]2C1
43	6	2	3.7	O=C(NCc1ccc2c(c1)OCO2)[C@@H]1[C@@H](CO)[C@@H]2Cn3c(cccc3=O)[C@H]1N2Cc1cccnc1
44	10	-7	17	Cc1noc(C)c1S(=O)(=O)N(C)C[C@H]1OCc2ccccc2-c2ccccc2C(=O)N([C@@H](C)CO)C[C@@H]1C
45	-4	-8	4.0	COCC(=O)Nc1ccc2c(c1)C(=O)N(C)C[C@H](OC)[C@@H](C)CN(CCc1ccccc1)[C@H](C)CO2
46	-2	-2	0.1	COc1ccc(NC(=O)N(C)C[C@@H]2Oc3c(NC(=O)c4ccncc4)cccc3C(=O)N([C@H](C)CO)C[C@@H]2C)cc1
47	3	0	2.7	CCC(=O)N1[C@@H](CO)[C@H](c2ccc(-c3cccnc3)cc2)[C@@H]1CN(CC)C(C)=O
48	1	0	1.6	CCc1cnc(N2[C@H](CO)[C@@H](c3ccc(C4=CCCC4)cc3)[C@@H]2C#N)s1

(list continues)
item	DUX4 txn inh	DUX4 txn inh difference	DUX4 txn inh control	SMILES
49	-4	-11	7.1	OC[C@H]1Nc2ccc(-c3ccc(F)cc3)cc2[C@@H]2[C@H]1CCN2Cc1ccc(F)cc1
50	4	0	3.7	N#C[C@@H]1N[C@@H](CO)[C@@H]1c1ccc(C2=CCCCC2)cc1
51	-1	-5	4.2	COc1ccc2c3c([nH]c2c1)[C@H](CO)N(Cc1ccccc1F)CC31CN(C(=O)C2CCOCC2)C1
52	?	nt	nt	O=C(C1CC1)N1CCCCN2[C@H](C1)[C@H](c1ccc(C#CC3CCCC3)cc1)[C@@H]2CO
53	0	-6	6.3	CS(=O)(=O)N1[C@H](CO)[C@H](c2ccccc2-c2ccccc2F)[C@@H]1C#N
54	-4	-2	-2.8	Cc1noc(C)c1S(=O)(=O)Nc1ccc2c(c1)C(=O)N([C@H](C)CO)C[C@H](C)[C@H](CN(C)C(=O)CCC(F)(F)F)OCCCC[C@H](C)O2
55	-3	-2	-0.4	C[C@@H]1CN([C@H](C)CO)S(=O)(=O)c2ccc(C3=CCCCC3)cc2O[C@H]1CN(C)S(=O)(=O)c1cn(C)cn1
56	3	4	-0.6	N#C[C@@H]1[C@H](c2ccc(C#CC3CCCC3)cc2)[C@H](CO)N1C(=O)Cc1ccccn1

Some of these compounds in order of their number in DUX4 txn inh control, falling:
item	DUX4 txn inh	DUX4 txn inh difference	DUX4 txn inh control	SMILES
49	-4	-11	7.1	OC[C@H]1Nc2ccc(-c3ccc(F)cc3)cc2[C@@H]2[C@H]1CCN2Cc1ccc(F)cc1
2	6	1	5.3	O=C(C[C@H]1C[C@H]2c3cc(NC(=O)NC4CCCCC4)ccc3O[C@H]2[C@H](CO)O1)NCC(F)(F)F
51	-1	-5	4.2	COc1ccc2c3c([nH]c2c1)[C@H](CO)N(Cc1ccccc1F)CC31CN(C(=O)C2CCOCC2)C1
47	3	0	2.7	CCC(=O)N1[C@@H](CO)[C@H](c2ccc(-c3cccnc3)cc2)[C@@H]1CN(CC)C(C)=O

Next results:
item	DUX4 txn inh	DUX4 txn inh difference	DUX4 txn inh control	SMILES
57	-2	2	-4.2	N#C[C@H]1[C@H](c2ccccc2)[C@H](CO)N1S(=O)(=O)c1ccc(-c2ccccc2)cc1
58	0	-1	0.9	CNC[C@H]1Oc2ncc(C#Cc3cccc(OC)c3)cc2C(=O)N([C@@H](C)CO)C[C@H]1C
59	3	-7	9.9	C/C=C/c1ccc([C@@H]2[C@@H](CO)N3C(=O)CN(C(=O)c4ccncc4)C[C@@H]23)cc1
60	3	0	3.6	CN(C)C(=O)[C@H]1[C@H](CO)[C@H]2Cn3c(ccc(-c4ccccc4)c3=O)[C@H]2N1C(=O)c1ccccn1
61	9	-1	9.5	CN(C)C(=O)c1cccc(-c2ccc([C@@H]3[C@@H](CO)N4C(=O)CN(C(=O)C5CCC5)C[C@@H]34)cc2)c1
62	-3	-2	-0.5	COc1ccccc1CNC(=O)C[C@H]1C[C@@H]2c3cc(NS(=O)(=O)c4ccc(F)cc4)ccc3O[C@@H]2[C@H](CO)O1
63	3	6	-3.6	CCCNC(=O)N1CCC2(CC1)CN(Cc1ccccn1)[C@@H](CO)c1c2c2ccc(OC)cc2n1C
64	-1	-4	3.0	Cc1ccccc1CN(C)C[C@H]1OCc2cn(nn2)CCCC(=O)N([C@@H](C)CO)C[C@H]1C

(continued)
item	DUX4 txn inh	DUX4 txn inh difference	DUX4 txn inh control	SMILES
65	0	0	0.6	O=C(NCC[C@@H]1CC[C@H](NS(=O)(=O)c2ccc(Cl)cc2)[C@@H](CO)O1)Nc1ccc(F)cc1
66	-2	-4	2.1	COCCNC(=O)C[C@H]1CC[C@@H]2[C@@H](COc3ccc(NC(=O)Nc4cccc(F)c4)cc3C(=O)N2C)O1
67	?	nt	nt	O=S(=O)(c1cccs1)N1CCCCN2[C@H](C1)[C@H](c1ccc(C3=CCCC3)cc1)[C@@H]2CO
68	1	-1	1.6	CN1C(=O)c2cc(NC(=O)C3CCOCC3)ccc2OC[C@@H]2O[C@H](CC(=O)NCc3ccc4c(c3)OCO4)CC[C@@H]21
69	-6	-1	-5.0	O=C(NCC[C@H]1CC[C@H](NS(=O)(=O)c2ccc(F)cc2)[C@H](CO)O1)c1ccc2c(c1)OCO2
70	0	0	-0.6	COc1ccc(S(=O)(=O)N(C)C[C@H]2OCc3cn(nn3)CCCC(=O)N([C@@H](C)CO)C[C@H]2C)cc1
71	3	-5	8.3	Cc1ccccc1-c1ccc([C@H]2[C@H]3CN(C(=O)Nc4cccc(F)c4)CC(=O)N3[C@H]2CO)cc1
72	-1	-1	-0.2	CO[C@H]1CN(C)C(=O)c2ccc(NC(=O)C3CCCC3)cc2OC[C@@H](C)N(S(C)(=O)=O)C[C@@H]1C
73	-5	-5	-0.3	COCC(=O)Nc1ccc2c(c1)C(=O)N(C)[C@H]1CC[C@H](CC(=O)NCc3ccccc3Cl)O[C@@H]1CO2
74	-4	7	-11	O=C(c1ccncc1)N1CC[C@H]2[C@H](CO)Nc3ccc(-c4ccccc4)cc3[C@H]21
75	-2	-3	1.2	Cc1noc(C)c1NC(=O)N(C)C[C@@H]1OCCCC[C@@H](C)Oc2ccc(NC(=O)c3ccncc3)cc2C(=O)N([C@H](C)CO)C[C@H]1C
